Vaccinia stage – Vaccinia orthopox stage-specific inhibition; Vaccinia-infected cells, mCherry/Venus stage reporter fluorescence; hits give low values; some inactives read as strong as hits; activity change (mCherry), % (concentration not given with the values); 89,000 compounds, 0.01% hits; AID 1053133;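 active = mCherry past -33% and 40 or more points under the early reporter, replicates agreeing; inconclusive = past -33% without that gap or agreement; tested in A549 cells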;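 note: scaled between vehicle wells and reference inhibitor wells; 23 nL library stock went into each well; one replicate is shown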
Vaccinia stage Venus – second read-out of Vaccinia stage, no call of its own (marks repeat the call); activity change (Venus), %; measured here: Venus reporter, other viral stage;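 negative = less Venus signal; first of two replicates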
An asterisk follows results filed as active; ? = inconclusive; . = not tested or not shown.

SMILES | Vaccinia stage | Vaccinia stage Venus
C[C@@H]1CN([C@H](C)CO)C(=O)c2cccc(NS(=O)(=O)c3ccc(F)cc3)c2O[C@H]1CN(C)S(=O)(=O)c1cn(C)cn1 | 10.0 | 8.8
O=C(C[C@@H]1CC[C@@H]2[C@H](COC[C@H](O)CN2Cc2ccc(F)cc2)O1)NCCc1ccccc1 | -3.5 | -7.6
C[C@H]1CN([C@@H](C)CO)C(=O)c2cc(NC(=O)NC3CCCCC3)ccc2O[C@H]1CN(C)C(=O)Nc1cccc2ccccc12 | 4.2 | 6.4
COCCN(C[C@H]1[C@H](c2ccccc2)[C@H](CO)N1C(C)=O)C(=O)c1ccncc1 | 18.8 | 18.7
O=C(C[C@@H]1CC[C@@H](NC(=O)CCN2CCCCC2)[C@@H](CO)O1)Nc1nccs1 | 10.2 | 11.9
N#C[C@@H]1[C@@H](c2ccccc2-c2cccc(F)c2)[C@H](CO)N1C(=O)C1CC1 | 7.8 | 6.2
C[C@@H]1CCCCO[C@@H](CN(C)Cc2ccc(C(F)(F)F)cc2)[C@H](C)CN([C@@H](C)CO)C(=O)c2cc(NC(=O)c3ccccc3)ccc2O1 | ? | .
C[C@H](CO)N1C[C@H](C)[C@@H](CN(C)C(=O)C2CCCCC2)OCCCC[C@H](C)Oc2ccc(NC(=O)C3CCCCC3)cc2C1=O | -26.7 | -25.7
Cc1ccc(S(=O)(=O)N[C@@H]2CC[C@@H](CCNC(=O)C3CCCCC3)O[C@H]2CO)cc1 | -13.6 | -7.1
O=C(Cc1ccccn1)N1CCCCN2[C@@H](CO)[C@@H](c3ccc(C#Cc4ccccc4)cc3)[C@@H]2C1 | ? | .
CN1C(=O)c2cc(NS(C)(=O)=O)ccc2OC[C@H]2O[C@H](CC(=O)N3CCOCC3)CC[C@@H]21 | 6.4 | 6.7
COc1ccc(CNC(=O)C[C@H]2C=C[C@@H](NC(=O)CN(C)C)[C@@H](CO)O2)cc1 | 12.3 | 31.4
C[C@H](CO)N1C[C@H](C)[C@H](CN(C)C(=O)c2ccncc2)OCCCC[C@H](C)Oc2ccc(NS(=O)(=O)c3cccs3)cc2C1=O | -4.1 | -7.3
COCCNC(=O)C[C@@H]1C[C@H]2c3cc(NC(=O)CC4CC4)ccc3O[C@H]2[C@@H](CO)O1 | 18.5 | 16.8
O=C(O)[C@H]1[C@H](CO)[C@H]2Cn3c(ccc(-c4ccncc4)c3=O)[C@@H]1N2S(=O)(=O)c1ccccc1F | -7.8 | -3.8
C[C@@H]1CN([C@@H](C)CO)C(=O)c2cccc(NC(=O)c3ccncc3)c2O[C@H]1CN(C)S(=O)(=O)c1cccs1 | -0.4 | 1.5
CCC(=O)NC[C@@H]1[C@@H](c2ccc(C3=CCCC3)cc2)[C@@H](CO)N1C(=O)CN(C)C | -8.9 | -3.8
O=C(Nc1cccc(F)c1)N1CC(=O)N2[C@H](CO)[C@H](c3ccc(-c4ccccc4F)cc3)[C@H]2C1 | -33.1 | -24.1
C[C@H](CO)N1C[C@H](C)[C@@H](CN(C)S(=O)(=O)c2ccc(Cl)cc2)Oc2ccc(NC(=O)Nc3ccc(C(F)(F)F)cc3)cc2CC1=O | ? | .
COc1ccccc1C#Cc1ccc([C@@H]2[C@@H](C#N)N(C(=O)C3CCC3)[C@H]2CO)cc1 | -21.9 | -9.1
COCCNC(=O)C[C@H]1CC[C@@H](NS(=O)(=O)c2ccc(C)cc2)[C@@H](CO)O1 | -1.0 | -0.2
CC(=O)N(C)C[C@@H]1Oc2cc(C#CCC3CCCC3)ccc2S(=O)(=O)N([C@H](C)CO)C[C@@H]1C | ? | .
CN(C)CC(=O)N1[C@@H]2c3ccc(-c4ccccc4)c(=O)n3C[C@H]1[C@H](CO)[C@H]2C(=O)N1CCOCC1 | -1.2 | 1.9
O=C1CN(Cc2ccc(F)cc2)C[C@@H]2[C@H](c3ccc(-c4cccnc4)cc3)[C@@H](CO)N12 | 5.8 | 6.0
CNC[C@@H]1OCCCC[C@H](C)Oc2ccc(NC(=O)NC(C)C)cc2C(=O)N([C@H](C)CO)C[C@H]1C | 9.2 | 4.6
CO[C@H]1CN(C)C(=O)c2cc(NS(=O)(=O)CC(F)(F)F)ccc2OC[C@@H](C)N(C(=O)NC(C)C)C[C@@H]1C | 4.1 | 12.5
C[C@@H]1CN([C@H](C)CO)C(=O)c2cccc(NC(=O)Nc3ccc(F)cc3)c2O[C@H]1CN(C)Cc1ccncc1 | -0.4 | 6.5
O=C1CNC[C@H]2[C@@H](c3ccc(C4=CCCCC4)cc3)[C@@H](CO)N12 | -9.7 | -3.4
C[C@H]1CN([C@@H](C)CO)S(=O)(=O)c2ccc(C3=CCCC3)cc2O[C@H]1CN(C)C(=O)c1cnccn1 | 4.4 | 5.6
COc1ccccc1-c1cn(CC[C@H]2CC[C@H](NC(=O)Cc3ccccn3)[C@H](CO)O2)nn1 | 1.0 | 6.7
COc1ccc(S(=O)(=O)N[C@@H]2C=C[C@@H](CC(=O)N3CCN(c4ccccc4)CC3)O[C@@H]2CO)cc1 | 8.9 | 12.7
CCCc1cn(CC[C@@H]2CC[C@H](NC(=O)C3CCCCC3)[C@@H](CO)O2)nn1 | 1.7 | -4.1
C[C@H]1CCCCO[C@H](CN(C)C(=O)Nc2ccc(F)cc2)[C@@H](C)CN([C@@H](C)CO)C(=O)c2cc(NC(=O)Nc3ccc(C(F)(F)F)cc3)ccc2O1 | -15.7 | -3.2
C[C@@H]1CCCCO[C@@H](CN(C)C(=O)c2ccncc2)[C@@H](C)CN([C@H](C)CO)C(=O)c2cc(NS(=O)(=O)c3cn(C)cn3)ccc2O1 | 33.1 | 12.6
COc1ccccc1-c1ccc2n(c1=O)C[C@@H]1[C@@H](CO)[C@H](C(=O)N(C)C)N(C(=O)c3cccnc3)[C@H]21 | 15.4 | -0.6
C[C@@H](NC(=O)[C@H]1[C@H](CO)[C@H]2Cn3c(cccc3=O)[C@H]2N1S(C)(=O)=O)c1ccccc1 | 5.3 | 6.1
COc1ccc(NC(=O)N(C)C[C@H]2Oc3ccc(NS(=O)(=O)c4ccc(F)cc4)cc3C(=O)N([C@@H](C)CO)C[C@@H]2C)cc1 | 37.1 | 12.7
Cn1cnc(S(=O)(=O)N2CCCCN3[C@H](CO)[C@H](c4ccc(-c5ccccc5F)cc4)[C@@H]3C2)c1 | 10.2 | -4.1
CO[C@@H]1CN(C)C(=O)c2cc(NC(=O)Nc3ccccc3Cl)ccc2OC[C@@H](C)NC[C@@H]1C | -9.6 | 3.8
COc1ccc(NC(=O)N[C@@H]2CC[C@@H](CCNC(=O)Cc3ccncc3)O[C@@H]2CO)cc1 | -5.9 | -4.6
C[C@H]1CN([C@@H](C)CO)C(=O)c2cc(NC(=O)c3ccncc3)ccc2O[C@@H]1CN(C)Cc1ccc(C(=O)O)cc1 | -1.5 | -4.0
CCS(=O)(=O)N1[C@@H](CO)[C@H](c2ccccc2)C12CN(C(=O)C1CCCC1)C2 | 10.4 | 16.9
CN(C)CC(=O)Nc1ccc2c(c1)[C@H]1C[C@H](CC(=O)NCc3cc(F)ccc3F)O[C@H](CO)[C@H]1O2 | -5.2 | -0.4
O=C(C[C@H]1C[C@@H]2c3cc(NC(=O)CC4CC4)ccc3O[C@@H]2[C@H](CO)O1)NCC(F)(F)F | 7.1 | 3.6
O=C(C[C@@H]1CC[C@@H]2[C@H](COC[C@H](O)CN2C(=O)Nc2ccc(Cl)c(Cl)c2)O1)NCc1ccccc1 | ? | .
C[C@H](CO)N1C[C@H](C)[C@H](CN(C)C(=O)CN(C)C)Oc2cc(-c3ccc(C#N)cc3)ccc2S1(=O)=O | -5.3 | -3.1
COc1ccc(NC(=O)Nc2ccc3c(c2)C(=O)N([C@H](C)CO)C[C@H](C)[C@@H](CN(C)Cc2ccc(C(=O)O)cc2)O3)cc1 | 6.1 | 15.0
CC(C)NC(=O)N1CCCCN2[C@H](CO)[C@@H](c3ccc(C#CC4CC4)cc3)[C@@H]2C1 | -3.7 | -9.6
C[C@H](CO)N1C[C@H](C)[C@H](CN(C)Cc2cccc(C(=O)O)c2)Oc2cc(C3=CCCCC3)ccc2S1(=O)=O | 9.9 | 8.8
C[C@@H]1CN([C@H](C)CO)C(=O)c2c(c3ccccc3n2C)-c2ccccc2CO[C@@H]1CN(C)Cc1cccc(O)c1 | ? | .
(more compounds)
SMILES | Vaccinia stage | Vaccinia stage Venus
Cc1noc(C)c1NC(=O)N(C)C[C@@H]1Oc2ccc(NC(=O)Nc3ccc(C(F)(F)F)cc3)cc2CC(=O)N([C@@H](C)CO)C[C@@H]1C | -3.5 | 6.4
C[C@H]1CN([C@@H](C)CO)C(=O)c2cc(NC(=O)Nc3ccc(C(F)(F)F)cc3)ccc2O[C@H]1CN(C)C(=O)Nc1ccc2c(c1)OCO2 | 1.2 | -3.5
CNC[C@H]1Oc2ccc(NS(=O)(=O)c3ccc(Cl)cc3)cc2CC(=O)N([C@H](C)CO)C[C@H]1C | 10.2 | 5.0
CO[C@@H]1CN(C)C(=O)c2cc(NS(C)(=O)=O)ccc2OC[C@@H](C)N(S(=O)(=O)CC(F)(F)F)C[C@H]1C | 3.2 | 1.7
CC(C)NC(=O)N(C)C[C@H]1Oc2ccc(NS(C)(=O)=O)cc2CC(=O)N([C@H](C)CO)C[C@@H]1C | 16.1 | 12.0
C[C@H]1CCCCO[C@H](CN(C)C(=O)Cc2ccccc2)[C@@H](C)CN([C@@H](C)CO)C(=O)c2cc(NC(=O)Nc3ccc(F)cc3)ccc2O1 | -25.3 | -11.8
C/C=C/c1ccc([C@@H]2[C@@H](CO)N(C(C)=O)C23CN(C(=O)c2ccc(F)cc2)C3)cc1 | ? | .
CC(=O)N1CC(=O)N2[C@H](CO)[C@H](c3ccc(C#CC(C)C)cc3)[C@H]2C1 | 15.8 | 7.4
CCCC(=O)Nc1ccc2c(c1)C(=O)N(C)C[C@@H](OC)[C@@H](C)CN(CCC)[C@H](C)CO2 | -6.9 | 3.3
COc1ccccc1C#Cc1ccc([C@@H]2[C@@H](CO)N(C(=O)C3CCC3)[C@H]2C#N)cc1 | -34.0 | -13.9
O=C(C[C@@H]1CC[C@@H](NC(=O)C2CC2)[C@@H](CO)O1)NC1CCC1 | 0.3 | 1.0
C[C@H](CO)N1C[C@H](C)[C@@H](CN(C)Cc2ccc(F)cc2)Oc2ncc(-c3ccccc3F)cc2C1=O | ? | .
C[C@@H]1CN([C@H](C)CO)S(=O)(=O)c2ccc(C#CC3CC3)cc2O[C@H]1CN(C)C(=O)CN(C)C | -3.0 | 5.0
O=C(CC1CC1)N1CC(=O)N2[C@H](C1)[C@H](c1ccc(C#Cc3cccc(F)c3)cc1)[C@@H]2CO | ? | .
COc1ccccc1NC(=O)N1CCCCN2[C@H](CO)[C@H](c3ccc(C#CC4CCCC4)cc3)[C@H]2C1 | ? | .
C[C@@H]1CN([C@H](C)CO)C(=O)c2cccc(NS(=O)(=O)c3ccc(F)cc3)c2O[C@H]1CN(C)C(=O)Nc1ccc(C(F)(F)F)cc1 | -17.3 | 2.0
C[C@H](CO)N1C[C@H](C)[C@@H](CN(C)CC2CC2)OCCCC[C@H](C)Oc2ccc(NS(=O)(=O)c3ccc(F)cc3)cc2C1=O | 19.5 | 0.6
O=C(Cc1ccccn1)N1[C@H](CO)[C@H]2c3ccccc3NC[C@H]21 | 12.5 | 20.1
C[C@@H]1CN([C@@H](C)CO)C(=O)c2cccc(N(C)C)c2O[C@@H]1CN(C)Cc1ccc(C(=O)O)cc1 | 10.7 | 7.3
C[C@H](CO)N1C[C@H](C)[C@H](CN(C)CC2CCCCC2)OCCCC[C@H](C)Oc2ccc(NC(=O)Nc3ccccc3)cc2C1=O | ? | .
COC(=O)N(C)C[C@H]1OCc2ccccc2-c2c(n(C)c3ccccc23)C(=O)N([C@H](C)CO)C[C@H]1C | -15.8 | -11.5
COCC(=O)N1C[C@H](C)[C@@H](OC)CN(C)C(=O)c2cc(NC(=O)c3ccc(OC)cc3)ccc2OC[C@@H]1C | -1.6 | -2.0
C[C@@H]1CN([C@@H](C)CO)C(=O)Cc2cc(NS(=O)(=O)c3ccccc3)ccc2O[C@H]1CN(C)C(=O)Nc1cccc2ccccc12 | 13.4 | 19.1
COc1ccc(S(=O)(=O)Nc2cccc3c2O[C@H](CN(C)Cc2ccc(Oc4ccccc4)cc2)[C@@H](C)CN([C@H](C)CO)C3=O)cc1 | -20.5 | -21.3

Screening data as filed in PubChem BioAssay.

Only part of the results is shown (hit frequency here may not be typical).
